# Bioassay records: PubChem BioAssay, Johns Hopkins Ion Channel Center
# KCNQ2 inh: KCNQ2 potassium channel inhibitors, primary screen, cell-based, CHO-K1, FluxOR thallium flux, B-score (AID 2156). O88943. 20 min; hits give low values; only compounds with negative scores are shown here; some inactives read as strong as hits. B-score at 10 µM. 1.1% of 310,000 active;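 active means fluorescence ratio B-score at most minus 3 library SDs, with starting brightness B-score within 2 library SDs, cut at about -5.5 in these data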
# Target sequence (O88943 whole entry, looked up): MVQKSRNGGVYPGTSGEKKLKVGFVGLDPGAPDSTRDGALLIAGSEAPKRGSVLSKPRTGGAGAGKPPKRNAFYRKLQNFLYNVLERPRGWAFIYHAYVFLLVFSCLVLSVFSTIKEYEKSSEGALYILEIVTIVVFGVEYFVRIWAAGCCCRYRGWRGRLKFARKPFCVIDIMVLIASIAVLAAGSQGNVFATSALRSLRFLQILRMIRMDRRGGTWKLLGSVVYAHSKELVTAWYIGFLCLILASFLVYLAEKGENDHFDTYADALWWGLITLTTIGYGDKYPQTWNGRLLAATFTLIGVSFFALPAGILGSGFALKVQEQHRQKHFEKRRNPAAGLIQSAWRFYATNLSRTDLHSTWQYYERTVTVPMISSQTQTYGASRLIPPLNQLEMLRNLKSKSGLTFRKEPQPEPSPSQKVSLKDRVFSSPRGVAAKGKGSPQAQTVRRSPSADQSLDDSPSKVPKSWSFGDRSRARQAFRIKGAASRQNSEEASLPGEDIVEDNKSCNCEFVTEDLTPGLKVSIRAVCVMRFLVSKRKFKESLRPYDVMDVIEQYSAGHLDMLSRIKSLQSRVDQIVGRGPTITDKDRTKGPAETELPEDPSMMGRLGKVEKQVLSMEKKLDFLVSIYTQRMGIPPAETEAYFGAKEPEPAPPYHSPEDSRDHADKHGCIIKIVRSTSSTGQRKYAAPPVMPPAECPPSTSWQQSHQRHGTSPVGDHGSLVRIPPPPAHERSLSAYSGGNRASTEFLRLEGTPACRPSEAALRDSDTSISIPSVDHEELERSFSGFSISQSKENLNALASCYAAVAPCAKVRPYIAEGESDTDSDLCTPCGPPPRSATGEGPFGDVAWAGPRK
# KCNQ2 inh baseline: also measured in KCNQ2 inh; calls as there; B-score; measured here: initial fluorescence intensity artifact check;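 brightness before thallium and not channel activity; 0 = typical well and far values either way flag optical interference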
# Active calls of the source: *; i = inactive. A portion of the library; rates above refer to the full screens.
SMILES,KCNQ2 inh,KCNQ2 inh baseline
COc1ccc2cc(CN(C(=O)Nc3ccccc3)C3CCCC3)c(=O)[nH]c2c1,i,1.1
Cc1c(/C=N\NC(=O)C2COc3ccc(C(C)(C)C)cc3O2)c2ccccc2n1C (configuration not stated),i,-0.26
CCCCON1C(=O)c2cccc3cccc(c23)C1=O,i,0.85
OC(c1ccccc1)(c1ccc(F)cc1)C(c1ccccc1)N1CCOCC1 (configuration not stated),-5.7*,0.37*
S=C(Nc1ccccn1)c1ccccn1,i,1.4
O=C1N(Cc2ccc(F)cc2Cl)c2ccccc2C12OCCCO2,i,0.01
CCc1cc(=O)oc2cc(OCC(=O)NCCCn3ccnc3)ccc12,i,6.7
O=C(NNc1nc2cc3c(cc2s1)OCCO3)c1ccc(F)cc1,i,1.6
COc1ccc(C)cc1NC(=O)c1ccc(NS(=O)(=O)c2c(C)noc2C)cc1,i,0.03
Cc1cccc(NC(=O)Cn2c(/C=C/c3ccccc3)nc3ccccc32)c1,i,0.71

# As a short view, some entries already given.
SMILES,KCNQ2 inh,KCNQ2 inh baseline
COc1ccc(C)cc1NC(=O)c1ccc(NS(=O)(=O)c2c(C)noc2C)cc1,i,0.03
Cc1cccc(NC(=O)Cn2c(/C=C/c3ccccc3)nc3ccccc32)c1,i,0.71

# Going on with the list.
SMILES,KCNQ2 inh,KCNQ2 inh baseline
Cc1cccc(C2NS(=O)(=O)N=C2N)c1 (configuration not stated),i,1.6
COc1ccc(NS(=O)(=O)c2cn(C)cn2)c(OC)c1,i,2.2
COc1ccccc1NC(=O)Oc1ccc(NC(=O)c2ccco2)cc1,i,1.1
O=c1[nH]c(C2CCN(S(=O)(=O)c3cccc(Cl)c3)CC2)nc2c1nnn2Cc1ccccc1,i,0.6
Cc1cc(C)nc(Nc2nc(C)c3cc4c(cc3n2)OCO4)n1,i,0.47
c1ccc(-n2nc3c(ccc4cnnc43)[nH]2)cc1,i,1.2
CCN(CCCNC(=O)Cn1cc2c(n1)CCCC2)c1cccc(C)c1,i,0.18
CS(=O)(=O)N1CCC(C(=O)Nc2ccc(F)cc2)CC1,i,1.2
O=C(O)C1=C(C(=O)N2CCN(C(=O)c3ccco3)CC2)CCCC1,i,0.23
Cc1cccc(NC(=O)c2cccc(C(=O)Nc3cccc(C)c3C)n2)c1C,i,1.5
Cc1ccc(CNC(=O)Cn2nnc(C(=O)Nc3cc(C)ccc3C)c2N)cc1,i,1.5
Cc1ccc(/C=N/NC(=O)c2ccc(-n3cccc3)cc2)o1,i,-0.74
Cc1ccc(-n2ncc3c(=O)n(CC#N)cnc32)cc1C,i,0.74
COC(=O)c1ccccc1NC(=O)Cn1c(=O)oc2ccc(Cl)cc21,i,-0.28
Cc1cc(C)c(C#N)c(SCc2[nH]nc3c2C(c2ccc(F)cc2)C(C#N)=C(N)O3)n1 (configuration not stated),i,2
Cc1csc(SCC(=O)NCCc2ccc(Cl)cc2)n1,i,-1.1
Cc1cc(C)c2c(N)c(C(=O)NC3CCCC3)sc2n1,i,1.4
Cc1ccc(S(=O)(=O)Nc2c(C)nn(C)c2C)c(C)c1,i,0.67
O=C(CCOc1ccccc1)Nc1ccc([N+](=O)[O-])cc1,i,0.53
CCNc1nc(NC(C)C)nc(SCCOC(=O)c2ccccc2)n1,i,0.03
O=C1C(=Cc2ccco2)C(=O)c2ccccc21,i,1.1
O=C(NCCCNC(=O)c1ccccn1)c1cccc(F)c1,i,0.67
CCn1nnnc1SCC(=O)NCc1cccs1,i,0.14
CCS(=O)(=O)c1ncc(Cl)c(C(=O)Nc2ccc(S(=O)(=O)N3CCC(C)CC3)cc2)n1,i,-2.8
CCOC(=O)c1ccc(NC(=O)N2CCc3ccccc32)cc1,i,0.57
CCCn1c(N)c(N(CCOC)C(=O)CSCC(=O)Nc2ccc(OC)cc2)c(=O)[nH]c1=O,i,0.76
O=C(Nc1ccc(C(=O)O)cc1)/C(=C\c1ccc([N+](=O)[O-])cc1)NC(=O)c1ccc(Br)cc1,i,-0.63
CC(=O)c1ccc(OCc2cc(C(=O)NC(C)CCn3cccn3)no2)cc1 (configuration not stated),i,-1.6
O=C(NCc1ccccc1)C(c1ccc(O)cc1)N(C(=O)c1cnccn1)c1ccccc1 (configuration not stated),i,-0.04
O=C(Nc1cccc(O)c1)c1ccc(S(=O)(=O)N2CCCCCC2)cc1,i,-2.9
COc1ccc(S(=O)(=O)N2CCOC2CNC(=O)C(=O)NCc2ccccc2Cl)cc1 (configuration not stated),i,-1.8
CCc1ccc(C(C(=O)NCc2ccc(F)cc2)N(C(=O)c2csnn2)C2CC2)cc1 (configuration not stated),i,-0.22
N#Cc1ccccc1CN1C(=O)NC(Cc2c[nH]c3ccccc23)C1=O (configuration not stated),i,-0.6
COCc1nnc(N)s1,i,-0.94
O=C(NCC1CCCO1)C1CCCN(S(=O)(=O)c2cc(Cl)ccc2Cl)C1 (configuration not stated),i,0.48
O=C1CC(/C=C/c2ccco2)=Nc2ccccc2N1,i,5.4
O=C(/C=C/c1ccc(Cl)cc1)NCCCn1ccnc1,i,2.9
NS(=O)(=O)c1ccc(NC(=O)Nc2ccccc2)cc1,i,0.12
Cc1oc(C(C)(C)C)cc1C(=O)Nc1cccc(/C=C/C(=O)O)c1,i,-0.2
Cc1c(C(=O)NCCSCc2ccccc2Cl)cccc1[N+](=O)[O-],i,-0.98

# Compound profiles, from the list above. Screens in order: KCNQ2 inh, KCNQ2 inh baseline
# O=C(NCC1CCCO1)C1CCCN(S(=O)(=O)c2cc(Cl)ccc2Cl)C1 (configuration not stated) is listed with i, 0.48
# Cc1c(C(=O)NCCSCc2ccccc2Cl)cccc1[N+](=O)[O-] is listed with i, -0.98
# O=C(/C=C/c1ccc(Cl)cc1)NCCCn1ccnc1 is listed with i, 2.9

# Next part.
SMILES,KCNQ2 inh,KCNQ2 inh baseline
COc1ccc(NC(=O)CN(C)C(=O)C2=COCCO2)cc1,i,0.5
CCOc1ccc(C2C(C(=O)c3ccc(C)o3)=C(O)C(=O)N2CCN2CCOCC2)cc1OC (configuration not stated),i,2.4
Cc1cc(NS(=O)(=O)c2ccc(NC(=O)COc3ccccc3C(C)C)cc2)no1,i,-2.2
COc1cccc(-n2c(N)cc(=O)nc2SCC(=O)Nc2cc(C)on2)c1,i,-1.7
CCOc1cc(S(=O)(=O)N2CCN(S(=O)(=O)CC)CC2)c(OCC)cc1-n1cnnn1,i,-1.2
O=C(c1cc([N+](=O)[O-])ccc1N1CCOCC1)N1CCOCC1,i,-1.2
COc1ccc(NC(=O)c2ccc(-n3cnnn3)cc2)c([N+](=O)[O-])c1,i,1.7
Cc1cc2cc(CN(CCN(C)C)C(=S)NCc3ccco3)c(=O)[nH]c2cc1C,i,-0.05
CC(C)(C)c1ccc(S(=O)(=O)N2CCc3nc4ccccc4c(C(=O)O)c3C2)cc1,i,-1.4
O=c1cc(COc2ccccc2[N+](=O)[O-])nc2sccn12,i,-1.3

# Entries listed so far that contain a nitro group on carbon, in the order listed:
SMILES,KCNQ2 inh,KCNQ2 inh baseline
O=C(CCOc1ccccc1)Nc1ccc([N+](=O)[O-])cc1,i,0.53
O=C(Nc1ccc(C(=O)O)cc1)/C(=C\c1ccc([N+](=O)[O-])cc1)NC(=O)c1ccc(Br)cc1,i,-0.63
Cc1c(C(=O)NCCSCc2ccccc2Cl)cccc1[N+](=O)[O-],i,-0.98
O=C(c1cc([N+](=O)[O-])ccc1N1CCOCC1)N1CCOCC1,i,-1.2
COc1ccc(NC(=O)c2ccc(-n3cnnn3)cc2)c([N+](=O)[O-])c1,i,1.7
O=c1cc(COc2ccccc2[N+](=O)[O-])nc2sccn12,i,-1.3

# The results go on:
SMILES,KCNQ2 inh,KCNQ2 inh baseline
Cc1ccsc1C(=O)OCC(=O)N1CC(=O)Nc2ccccc21,i,-0.03
COc1cc(OC)cc(OCC(O)Cn2ccnc2)c1 (configuration not stated),i,2.3
O=C1c2ccccc2C(=O)N1CCOc1ccccc1Br,i,-0.3
O=C(c1cn(-c2ccc(Cl)c(Cl)c2)nn1)C1CC1,i,-0.31
CCOC(=O)C(=CNc1nc2ccc(C(=O)OCC)cc2s1)C(=O)OCC,i,-0.86
O=C(CCC(=O)N(CC(=O)NC1CCCCC1)Cc1ccccc1)Nc1nccs1,i,-2.6
Cc1ccc(NC(=O)CN2CCC(NC(=O)Cc3ccccc3)CC2)c(C)c1,i,0.34
O=S(=O)(c1ccccc1)c1nc(-c2ccco2)oc1NCc1cccnc1,i,-0.91
O=c1ccc(Oc2nc(N3CCOCC3)nc(N3CCOCC3)n2)nn1-c1ccccc1,i,-1.1
CC(C)C(NC(=O)Nc1ccccc1)C(=O)Nc1cccc(S(=O)(=O)N(C)C)c1 (configuration not stated),i,1.5
CCCCc1nn(-c2cc(Cl)ccc2OC)c2c1C(=O)CCC2,i,1.6
COc1ccc(Oc2cccc(Cl)c2CNC(=O)CCC(=O)O)cc1,i,0.84
O=C1CC2CS(=O)(=O)CC2N1c1ccc(Oc2ccccc2)cc1 (configuration not stated),i,-0.62
O=S(=O)(NCC1CCCO1)c1ccccc1F (configuration not stated),i,-0.5
CCOC(=O)C1=C(C)N=C2SC(C)C(=O)N2C1c1ccc(OCC)c(OCC)c1 (configuration not stated),i,-1.2
Cc1ccc(CN2CCN(Cc3ccc(C)s3)CC2CCO)cc1 (configuration not stated),i,3
CCOc1ccccc1NC(=O)C1C2CCC(O2)C1C(=O)O (configuration not stated),i,1
O=C(/C=C/c1ccccc1[N+](=O)[O-])NCCCN1CCCC1=O,i,-0.03
Cc1cccc(Nc2nnc(SCC(=O)c3ccc(Br)s3)s2)c1C,i,0.36
CCCCn1c(N)c(N(CC(C)C)C(=O)Cn2c(=O)cnc3ccccc32)c(=O)[nH]c1=O,i,1.9
Cc1ccc(NC(=S)NCCCN2CCOCC2)cc1C,i,1.9
Cc1cc(C)n(C(=O)COc2ccc(Cl)cc2Cl)n1,i,1.2
Cc1ccccc1NC(=O)c1ccc(C)c(S(=O)(=O)Nc2ccccn2)c1,i,0.62
CCN1CCN(S(=O)(=O)c2ccc(S(=O)(=O)NCC3CCCO3)cc2)CC1 (configuration not stated),i,-0.32
Cc1ccc(NC(=O)C2CC(=O)NC(Nc3cccc(C)c3)=N2)cc1 (configuration not stated),i,-0.5
COC(=O)c1ccc(NC(=S)NCCc2cccc(C)c2)cc1,i,0.05
C=C(C)c1cccc(C(C)(C)NC(=O)N2CCN(C/C=C/c3ccccc3)CC2)c1,i,0.73
O=C1CN(C(=O)NCC(=O)N[C@H](C(=O)O)c2ccccc2)c2ccccc2N1,i,0.88
Cc1ccc(C)c(N(CC(=O)NCc2ccco2)C(=O)CCC(=O)Nc2ccccn2)c1,i,0.26
CCCCCC(=O)Nc1cccc(C2=NOC3(C2)C[C@@H](C(N)=O)N(C(=O)c2cc([N+](=O)[O-])cc([N+](=O)[O-])c2C)C3)c1 (some centres not stated),i,-1.7
O=C(NCc1ccc(F)cc1)C(c1cccnc1)N(C(=O)c1csnn1)c1ccccc1 (configuration not stated),i,0.1
CCCSc1nnc(-c2ccccc2N)c(=O)[nH]1,i,2.5
O=C(NCC(c1cccs1)N1CCOCC1)c1ccc([N+](=O)[O-])cc1 (configuration not stated),i,0.62
N#CC1=C(N)N(c2ccccc2)C2=C(C(=O)CCC2)C1c1cccs1 (configuration not stated),i,0.41
COc1ccccc1/C=C/C=N/n1c(C2CCCCC2)n[nH]c1=S,i,0.06
COC(=O)c1ccc2c(c1)S(=O)(=O)NC(=NCCCN1CCOCC1)S2,i,-1.1
O=C(NC1CCS(=O)(=O)C1)Oc1ccccc1 (configuration not stated),i,0.49
Cc1cc(C)c(OCC(=O)Nc2ccccc2N2CCCCC2)c(C)c1,-5.6*,-1.5*
Cc1ccc(NC(=O)CCC(=O)n2nc(C)cc2C)c(C)c1,i,2.9
COc1ccc(-c2cccc(C3CC=CC4C3C(=O)N(Cc3ccccc3)C4c3ccc(OC)c(Cl)c3)c2)cc1 (configuration not stated),i,-0.25
Cc1ccccc1NS(=O)(=O)c1ccc(C(=O)N2CCCCCCC2)cc1,i,0.06
Cc1ncc([N+](=O)[O-])n1CCOC(=O)c1ccc(Cl)cc1Cl,i,0.07
O=C(CSc1nc2ccccc2c(=O)n1CCCN1CCOCC1)c1c[nH]c2ccccc12,i,0.92
COc1cc(C(=O)NC2(C(F)(F)F)NC(=O)N(CCCc3ccccc3)C2=O)cc(OC)c1OC (configuration not stated),i,-0.02
O=C(N/N=C/c1ccco1)/C(=C/c1cccc([N+](=O)[O-])c1)NC(=O)c1ccccc1,i,0.2
COc1ccc(S(=O)(=O)NC2CCCC2)cc1Cl,i,-0.07
CC(C)C(=O)Nc1ccccc1N1CCN(C(=O)c2ccccc2)CC1,i,1.9
COc1cc(C(=O)COC(=O)c2cc([N+](=O)[O-])ccc2N2CCOCC2)ccc1OC(F)F,i,1.3
O=[N+]([O-])c1cccc(S(=O)(=O)Nc2cccc(-c3ccc(N4CCOCC4)nn3)c2)c1,i,0.42
CCN(CC)S(=O)(=O)c1ccc(NS(=O)(=O)c2ccc(F)cc2)cc1,i,-0.08

# New compounds follow:
SMILES,KCNQ2 inh,KCNQ2 inh baseline
O=C(COc1ccc(Br)cc1Br)NC(=O)NC1CCCC1,i,-0.49
Cc1cc(N)n(-c2ccc(S(=O)(=O)N3CCCC3)cc2[N+](=O)[O-])n1,i,-0.06
CCN(CC)S(=O)(=O)c1ccc2c(c1)c(=O)c(C(=O)NCCc1ccccc1)cn2C,i,0.23
CN(C)N1C(N)=C(C#N)C(c2ccc(Br)cc2)C2=C1CCCC2=O (configuration not stated),i,-0.47
Cc1nn(-c2ccc(Cl)c(Cl)c2)c(=O)c2ccccc12,i,-0.32
CCOC(=O)N1CCC(N2CC34C=CC(O3)C(C(=O)Nc3ccc(F)cc3)C4C2=O)CC1 (configuration not stated),i,0.06
CC(C)(C)SCCNS(=O)(=O)c1ccc(Cl)cc1,i,0.84
CCN(CC)c1ccc(/C=N/N2CCN(Cc3ccccc3)CC2)c(O)c1,i,-0.72
